Screens from PubChem.
TSHR agonist – agonists of human thyroid stimulating hormone receptor. P16473. HEK293-CNG-TSHR cells (CNG channel as cAMP sensor), membrane potential dye, cAMP. Potency, µM (highest dose often 57.1 µM), inactives show at the top dose activation, usual class: activators. 0.48% of 73,000 active. AID 926; active = well fitted activation curve of enough size with the parental cells flat; inconclusive = any curve in the parental cells; inactive = parental cells flat and receptor cells flat or falling; further: potency means the concentration at half of the fitted maximal effect; % of control where 0% means no effect; weak receptor curves with flat parental cells got no call and are not listed
Target sequence (P16473 whole entry, looked up): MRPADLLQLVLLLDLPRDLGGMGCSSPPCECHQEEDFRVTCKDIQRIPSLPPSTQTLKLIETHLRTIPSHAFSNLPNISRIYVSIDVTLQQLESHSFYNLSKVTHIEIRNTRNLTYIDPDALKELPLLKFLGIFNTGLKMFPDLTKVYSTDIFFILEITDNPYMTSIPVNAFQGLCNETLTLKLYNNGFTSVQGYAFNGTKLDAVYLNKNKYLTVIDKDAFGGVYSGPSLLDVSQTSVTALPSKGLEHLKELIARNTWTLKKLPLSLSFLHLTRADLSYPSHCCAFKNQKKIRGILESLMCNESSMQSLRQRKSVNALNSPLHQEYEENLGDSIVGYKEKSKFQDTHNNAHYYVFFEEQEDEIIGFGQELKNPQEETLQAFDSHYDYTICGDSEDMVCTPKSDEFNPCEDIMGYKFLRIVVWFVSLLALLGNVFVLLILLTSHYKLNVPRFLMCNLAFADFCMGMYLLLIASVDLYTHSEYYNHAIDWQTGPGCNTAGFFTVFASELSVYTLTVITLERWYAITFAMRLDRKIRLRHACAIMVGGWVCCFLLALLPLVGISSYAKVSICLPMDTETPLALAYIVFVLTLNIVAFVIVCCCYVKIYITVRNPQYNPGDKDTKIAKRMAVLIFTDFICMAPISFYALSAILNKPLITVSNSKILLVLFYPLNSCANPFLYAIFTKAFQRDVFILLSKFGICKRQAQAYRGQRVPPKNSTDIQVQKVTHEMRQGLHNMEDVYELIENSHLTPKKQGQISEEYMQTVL
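cAMP rise detected as CNG-channel membrane depolarization by fluorescent dye (emission 590 nm), 30 min after compound, following 60 min dye loading containing 100 uM RO 20-1724 at room temperature. Cells: TSHR/CNG HEK 293, with parental CNG HEK 293 as control.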
Resorufin fluor – compound fluoresces in the resorufin spectral region; max dye-equivalent concentration, M; 0.04% of 59,000 active; Compound fluorescence, resorufin region 547/598 nm, buffer; hits give high values; active = above 10 nM dye equivalent; inconclusive = 1 to 10 nM; inactive = 1 nM or less; a few of its hits are not listed in these tables; further: highest value over a series up to 38 µM
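Tris 100 mM pH 8.0; compound added, 15 min RT; CCD imager read, ex 547 nm/em 598 nm; signal normalized to resorufin standard curve (six concentrations per plate) as dye-equivalent concentration.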
A647 autofl – compound fluoresces in the A647 spectral region; Compound fluorescence, A647 channel (570/671 nm), Tris buffer; max dye-equivalent concentration, M; 59,000 tested, under 10 active; active means above 1 µM dye equivalent; inconclusive means 0.1 to 1 µM; inactive means 0.1 µM or less;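 further: values scaled relative to a standard on each plate; highest value over a series up to 38 µM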
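Compounds pinned into 100 mM Tris pH 8.0, 15 min at room temperature, then read with 570 nm excitation/671 nm emission filters. Fluorescence normalized to an on-plate six-point Alexa 647 standard curve, giving dye-equivalent concentration per compound concentration.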
A488 fluor – compound autofluorescence in A488 spectral region | compound autofluorescence, A488 spectral region, dye equivalency; hits give high values | max dye equivalency, M | 0.1% of 59,000 active; active = above 10 nM dye equivalent; inconclusive = 1 to 10 nM; inactive = 1 nM or less; about half of its hits are not listed in these tables;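 further: highest value over a series up to 38 µM; compound alone in buffer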
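Read-out: relative fluorescence at 480/540 nm, expressed as Alexa 488 dye-equivalent concentration from a six-point A488 standard included per plate. Conditions: 100 mM Tris, pH 8.0; 15 min incubation, room temperature.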
AID923 – qHTS Assay for Allosteric/Competitive Inhibitors of Caspase-1: Spectroscopic Profiling in AFC Spectral Region; compound fluorescence, AFC spectral region (405/520 nm); almost no hit is shown here; AID 923, 2007; 1.1% of 75,000 active; Potency, µM (titrated, usually from 57.5 µM), inactives show top-dose fluorescence increase, hits mostly activators; active means well fitted activation curve with a large enough effect; inconclusive means small, poorly fitted or top-dose-only effect;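 further: potency means the concentration at half of the fitted maximal effect; 0% is about no effect; scaled to a free AFC standard on each plate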
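Compound autofluorescence profiled at 405 nm ex/520 nm em during kinetic caspase 1 run (50 nM enzyme, 5 uM Ac-WEHD-AFC, HEPES pH 7.5, 10 mM DTT). Titration up to 57 uM; baseline from regression intercept, normalized to AFC standard curve.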
An asterisk follows results filed as active; & = joins results of further samples; [ ] = dose if it differs, or a comment. Not all compounds are listed (hit frequency here may not be typical).

Start of the listing, in advance (3 entries):
O=C(NCCS(=O)CCNC(=O)C(F)(F)F)C(F)(F)F was read as TSHR agonist 4%, Resorufin fluor inactive, A647 autofl 2.3e-08, A488 fluor inactive and AID923 0.1%.
For Cc1cccc2c(=O)cc(C)n(CC(=O)N3CCCCC3)c12 the results were TSHR agonist 12%, Resorufin fluor inactive, A647 autofl 1e-09, A488 fluor inactive and AID923 0.5%.
CCCC(=O)Nc1nnc(CC(=O)N2CCCC2)s1 was read as Resorufin fluor inactive, A647 autofl 3.3e-08, A488 fluor inactive and AID923 0.2%.

The whole of this part, previewed entries included:
O=C(NCCS(=O)CCNC(=O)C(F)(F)F)C(F)(F)F was read as TSHR agonist 4%, Resorufin fluor inactive, A647 autofl 2.3e-08, A488 fluor inactive and AID923 0.1%.
For Cc1cccc2c(=O)cc(C)n(CC(=O)N3CCCCC3)c12 the results were TSHR agonist 12%, Resorufin fluor inactive, A647 autofl 1e-09, A488 fluor inactive and AID923 0.5%.
CCCC(=O)Nc1nnc(CC(=O)N2CCCC2)s1 was read as Resorufin fluor inactive, A647 autofl 3.3e-08, A488 fluor inactive and AID923 0.2%.
O=C(O)c1ccccc1-c1ccccc1C(=O)Nc1ccc2c(c1)Cc1cc(F)ccc1-2 was read as TSHR agonist -3%[11.4 µM], Resorufin fluor inactive, A647 autofl 1e-09, A488 fluor inactive and AID923 -2.4%[11.5 µM].
Screening Cc1ccc(S(=O)(=O)NC2=NCN(CCc3ccccc3)CN2)cc1 returned TSHR agonist 3%, Resorufin fluor inactive, A647 autofl 1.9e-08, A488 fluor inactive and AID923 0.3%.
`CCCCN(c1ccccc1)c1ncnc2c1cnn2C` gave TSHR agonist 2%[11.4 µM], Resorufin fluor inactive, A647 autofl 8.7e-09, A488 fluor inactive and AID923 2.2%[11.5 µM].
Cn1nnc2cc(C(=O)NCCC3=CCCCC3)ccc21 was read as TSHR agonist 3%, Resorufin fluor inactive, A647 autofl 5.2e-09, A488 fluor inactive and AID923 1.8%.
CC(C)CC(=O)N(c1ccc(F)cc1)C1C=CS(=O)(=O)C1 (centres undefined) was read as TSHR agonist -6%, Resorufin fluor inactive, A647 autofl 4.6e-09, A488 fluor inactive and AID923 0.7%.
For CCc1cccc2c(C#N)cn(CC(=O)NCCOC)c12 the results were TSHR agonist 2%, Resorufin fluor inactive, A647 autofl 2.7e-09, A488 fluor inactive and AID923 1.8%.
Screening Nc1[nH]nc2nc3ccccc3nc12 returned TSHR agonist 2% and AID923 -1.6%.
For CC(C)CC(=O)Nc1nnn(C)n1 the results were TSHR agonist -4%, Resorufin fluor inactive, A647 autofl 6.3e-09, A488 fluor inactive and AID923 0.6%.
Screening COc1ccccc1N/C(N)=N/c1nc(CSc2ccc(C)cc2)cc(=O)[nH]1 returned TSHR agonist 17%, Resorufin fluor inactive, A647 autofl 1.9e-09, A488 fluor inactive and AID923 1.8%.
`O=C(O)CCc1c2ccc(=O)c(O)c-2oc2c(O)c(O)ccc12` gave TSHR agonist -4%[11.4 µM], Resorufin fluor inactive, A647 autofl 1e-09, A488 fluor inactive and AID923 0.4%[11.5 µM].
CCCNC(=O)c1c[nH]c2ccc(S(=O)(=O)N(C)c3ccc(OCC)cc3)cc2c1=O was read as TSHR agonist 1%, Resorufin fluor inactive, A647 autofl 1.9e-08, A488 fluor inactive and AID923 0.5%.
CCCN(CCC)CCCNC(=O)CC1Nc2ccccc2NC1=O (centres undefined) was read as TSHR agonist 6%, Resorufin fluor inactive, A647 autofl 1.8e-08, A488 fluor inactive and AID923 2.1%.
COc1ccc(C2=NOC(C(=O)N3CCN(c4ccccc4OC)CC3)C2)cc1 (centres undefined) was read as TSHR agonist -5% and AID923 1.5%.
For Cc1ccc(S(=O)(=O)N2CCC(C(=O)OCC(=O)N3CC(=O)Nc4ccccc43)CC2)cc1 the results were TSHR agonist 8%, Resorufin fluor inactive, A647 autofl 1e-09, A488 fluor inactive and AID923 -1.2%.
For Cc1nc2nc(C)c(CCC(=O)N3CCN(c4ccccn4)CC3)c(C)n2n1 the results were Resorufin fluor inactive, A647 autofl 1.3e-08, A488 fluor inactive and AID923 2.7%.
CCC(CC)C(=O)N1c2ccc(F)cc2CCC1C (centres undefined) was read as TSHR agonist 7% and AID923 3.1%.
`COc1cc(OC)cc(C(=O)Nn2cc(C(=O)N3CCN(C)CC3)c3ccccc3c2=O)c1` gave TSHR agonist -2%[11.4 µM], Resorufin fluor inactive, A647 autofl 3.4e-08, A488 fluor inactive and AID923 0.8%.
Cc1cc(C(=O)NCc2cccs2)n(-c2ccccc2)n1 was read as TSHR agonist 1% and AID923 2.7%.
`Cc1c(Cl)cccc1N(CC(=O)O)S(C)(=O)=O` gave TSHR agonist 1%, Resorufin fluor inactive, A647 autofl 5e-09, A488 fluor inactive and AID923 0.7%.
Screening CC(C)(C)c1nnc2sc(SCC(=O)c3cccs3)nn2c1=O returned TSHR agonist 8%, Resorufin fluor inactive, A647 autofl 6e-09, A488 fluor inactive and AID923 0.2%.
Screening O=C(O)CC[C@@]1(c2ccccc2)NC(=O)NC1=O returned TSHR agonist 6%[11.4 µM], Resorufin fluor inactive, A647 autofl 1e-09, A488 fluor inactive and AID923 1.8%[11.5 µM].
Screening O=C(OCCN=C1NS(=O)(=O)c2ccccc21)c1cccnc1 returned TSHR agonist -13%, Resorufin fluor inactive, A647 autofl 3.7e-09, A488 fluor inactive and AID923 0.4%.
Screening CCC(=O)NCCCOc1ccccc1 returned TSHR agonist 0%, Resorufin fluor inactive, A647 autofl 1.5e-08, A488 fluor inactive and AID923 1.9%.
Cc1nc(C(C)(C)O)n(-c2ccccc2)n1 was read as TSHR agonist 22%, Resorufin fluor inactive, A647 autofl 1.2e-09, A488 fluor inactive and AID923 -1.1%.
COc1ccccc1NS(=O)(=O)c1ccc(Cl)cc1 was read as TSHR agonist 16%, Resorufin fluor inactive, A647 autofl 6.9e-09, A488 fluor inactive and AID923 -1.8%.
COc1ccc(Cn2c(N)c(C#N)c3nc4ccccc4nc32)cc1OC was read as Resorufin fluor inactive, A647 autofl 1.2e-09 and A488 fluor inactive.
COc1ccccc1Nc1nc(N)nc(CSc2nccc(C)n2)n1 was read as TSHR agonist -1%, Resorufin fluor inactive, A647 autofl 2.9e-08, A488 fluor inactive and AID923 1.1%.
For NCC1CCC(C(=O)O)CC1 (centres undefined) the results were TSHR agonist 10%[25.6 µM], Resorufin fluor inactive, A647 autofl 9.1e-09, A488 fluor inactive and AID923 0.7%.
Screening CCC(C(=O)Nc1cc(C)nn1-c1nc(C)cc(C)n1)c1ccccc1 (centres undefined) returned TSHR agonist inconclusive, Resorufin fluor inactive, A647 autofl 1.8e-09, A488 fluor inactive and AID923 -1.1%.
Cc1cccc(C2CC(c3ccccc3)Nc3ncnn32)c1 (centres undefined) was read as TSHR agonist 13% and AID923 -1.1%.
For O=C(Cn1nnc(-c2ccccc2NC(=O)C2CC2)n1)NC1CCCCC1 the results were TSHR agonist 4%, Resorufin fluor inactive, A647 autofl 1.3e-09, A488 fluor inactive and AID923 -1.0%.
For CC(=O)C1C(c2cccc(Oc3ccccc3)c2)NC(=O)NC1(O)C(F)(F)F (centres undefined) the results were TSHR agonist -1%, Resorufin fluor inactive, A647 autofl 6.9e-09, A488 fluor inactive and AID923 0.4%.
`Nc1c(C(=O)N2CCCCC2)sc(=S)n1-c1ccccc1` gave TSHR agonist 5%, Resorufin fluor inactive, A647 autofl 5.6e-08, A488 fluor inactive and AID923 0.5%.
For O=C(Nc1cccc(F)c1)NC1CC2CCCC(C1)N2C1CC1 (centres undefined) the results were TSHR agonist -4%, Resorufin fluor inactive, A647 autofl 4.2e-08, A488 fluor inactive and AID923 0.2%.
`Nc1nc2ccc(OC(F)(F)F)cc2s1` gave TSHR agonist -10%, Resorufin fluor inactive, A647 autofl 1e-09&1.2e-08&1e-09, A488 fluor inactive and AID923 -1.3%.
`COc1ccccc1N1CCN(C[C@@H](O)COc2cccc3ccccc23)CC1` gave TSHR agonist inconclusive, Resorufin fluor inactive, A647 autofl 3.6e-09&1e-09, A488 fluor inactive and AID923 -2.5%.
Screening C=CCc1cccc2cc(C(=O)NC)c(=O)oc12 returned TSHR agonist -5%, Resorufin fluor inactive, A647 autofl 2.1e-09, A488 fluor inactive and AID923 -1.9%.
CCC1CCCCN1C(=O)C1CC(c2cc(Cl)c(OC)cc2OC)=NO1 (centres undefined) was read as Resorufin fluor inactive, A647 autofl 2.2e-08, A488 fluor inactive and AID923 -2.6%.
`O=S(=O)(c1ccccc1C(F)(F)F)N1CCOCC1` gave TSHR agonist 1%, Resorufin fluor inactive, A647 autofl 4.4e-08, A488 fluor inactive and AID923 0.3%.
CCOC(=O)c1cc2sc(C)cc2n1CC(=O)N1CCOCC1 was read as TSHR agonist 2%, Resorufin fluor inactive, A647 autofl 2.8e-08, A488 fluor inactive and AID923 0.8%.
Cc1ccc(O)c(NC(=O)COc2cc(C)ccc2C)c1 was read as TSHR agonist -4%, Resorufin fluor inactive, A647 autofl 9.9e-09, A488 fluor inactive and AID923 -2.6%.
`CCc1ccc(NC(=O)c2cnc3scc(C)n3c2=O)cc1` gave TSHR agonist -1% and AID923 3.5%.
CCCCN(C)CCCNC(=O)Cn1c(=O)sc2ccccc21 was read as TSHR agonist 2%, Resorufin fluor inactive, A647 autofl 2.2e-09, A488 fluor inactive and AID923 1.3%.
`Cc1csc2ncc(C(=O)NC(C)c3ccccc3)c(=O)n12` (centres undefined) gave TSHR agonist 1%[11.4 µM] and AID923 1.4%.
Screening COc1cccc(-n2nnnc2SCC(=O)Nc2cccc(C)n2)c1 returned TSHR agonist inconclusive, Resorufin fluor inactive, A647 autofl 3.2e-08, A488 fluor inactive and AID923 -1.8%.
`C=CCNc1nc(-c2sc(NC(C)=O)nc2C)cs1` gave TSHR agonist 1% and AID923 4.1%.
Cn1c(=O)c2c(nc(NCc3ccc4c(c3)OCO4)n2Cc2ccccc2Cl)n(C)c1=O was read as Resorufin fluor inactive, A647 autofl 7.1e-08 and A488 fluor inactive.
`CN(CC(=O)Nc1ccc(F)c(F)c1F)c1cnccn1` gave TSHR agonist 6%, Resorufin fluor inactive, A647 autofl 3e-09, A488 fluor inactive and AID923 4.5%.
For Cc1cccc(OCCn2c(NC(=O)c3ccco3)nc3ccccc32)c1 the results were TSHR agonist inconclusive, Resorufin fluor inactive, A647 autofl 5.3e-09, A488 fluor inactive and AID923 -1.6%.
For O=C(C1CC1)N1CCc2cc(Br)cc(S(=O)(=O)NCCCN3CCCC3)c21 the results were TSHR agonist 5%[11.4 µM], Resorufin fluor inactive, A647 autofl 1e-09, A488 fluor inactive and AID923 -0.5%.
CCN1CCN(CCC(=O)Nc2ccccc2OC)CC1 was read as TSHR agonist 6%, Resorufin fluor inactive, A647 autofl 2.6e-09, A488 fluor inactive and AID923 8.9%.
Screening Cc1nn(-c2ccccc2)c2[nH]c(=O)c(CNc3ccc(N4CCOCC4)cc3)cc12 returned TSHR agonist 10%, Resorufin fluor inactive, A647 autofl 5.7e-09, A488 fluor inactive and AID923 2.3%.
CCOc1ccc(N2C(=O)CC(Sc3nccc(C)n3)C2=O)cc1 (centres undefined) was read as Resorufin fluor inactive, A647 autofl 1.6e-08, A488 fluor inactive and AID923 1.2%.
`COc1ccccc1NC(=O)C1=C(C)NC(=O)NC1c1ccccc1F` (centres undefined) gave TSHR agonist -9% and AID923 1.9%.
O=C(Nc1nc(-c2nc3ccccc3s2)cs1)c1ccco1 was read as TSHR agonist inconclusive and AID923 3.4%.
NC(=O)C1CCN(C(=O)CSc2ccccn2)CC1 was read as TSHR agonist 3%, Resorufin fluor inactive, A647 autofl 2e-08, A488 fluor inactive and AID923 -2.4%.
CSc1nc2sc3c(c2c(=O)[nH]1)CCCC3 was read as TSHR agonist -2% and AID923 4.3%.
